# Bioassay records: PubChem, several laboratories
# UUG fidelity = modulators of yeast start codon fidelity, primary screen, whole organism, S. cerevisiae, single point, plate reader; activity score, % at 18.7 µM; S. cerevisiae UUG-firefly luciferase reporter, luminescence/redox ratio; 350,000 compounds, 0.13% hits; AID 602363, 2012;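 active means replicate mean at a twofold rise or more, about +100% in these data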;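 further: firefly luciferase made from a UUG start codon reports start codon fidelity; reporter light over untreated wells divided by growth signal over untreated wells; some hits fall short of that in this replicate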
# MT1-MMP act inh = blockers of MT1-MMP proenzyme processing, primary screen, HT1080 RFP-PRO-GFP cells, GFP/RFP fluorescence | Matrix metalloproteinase-14 (Homo sapiens), P50281 | GFP/RFP ratio fluorescence, overnight; percent of plate control window, DMSO zero | GFP/RFP ratio change, % at 20 µM | 360,000 compounds, 0.061% hits | AID 651647, 2012;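 active means GFP/RFP ratio change of at least 30% with cell ATP level not reduced by more than half and red fluorescence within 50% of control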; further: strong numbers were not always called active
#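 Material: RFP-PRO-GFP reporter HT1080 cells. Dosing: single-point 20 µM compound, 1% DMSO. Controls: DMSO and RFP-L50D-GFP cell wells. Timing: cells overnight before dosing, compound overnight, 37 °C, 5% CO2. Measure: GFP/RFP fluorescence ratio.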
# HIV Env fusion = inhibitors of HIV-1 Env-driven cell-cell fusion, primary screen, HeLa-JRFL effector, CEM21 target cells, luciferase. AID 651610, 2012. inhibition, % at 12.3 µM. 360,000 compounds, 1.1% hits;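 active means mean replicate inhibition score of at least 50 and every replicate individually at or above 50; inconclusive means only one of the two criteria met; inactive means mean below 50 and not all replicates reaching 50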;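 further: 0% = plate neutral controls and 100% = maraviroc near 300 nM; one replicate is shown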
# CSC inhib = cancer stem cell viability inhibitors, primary screen, luminescence | cancer stem cell-like cells viability | inhibition, % at 7.5 µM | 300,000 compounds, 1.1% hits | AID 2717, 2010;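 active means mean at 75% or more and at least half the replicates too; inconclusive means mean and replicates disagree; tested in HMLE shEcad cells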;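 further: 0% = median of negative and 100% = median of positive control wells; the first replicate is given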
# eIF4H FP inh = human eIF4H binding inhibitors, primary screen, translation initiation inhibitor project, biochemical, uHTS, fluorescence polarization. 290,000 compounds, 0.94% hits. eIF4H fluorescence polarization binding assay. inhibition, % at 35 µM. Eukaryotic translation initiation factor 4H (Homo sapiens), Q15056;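 active means 50% or more with normal probe brightness, or confirmed in later tests; inconclusive means above 50% with abnormal brightness, or retests that disagree; inactive means below 50% or failed in later tests; about a fifth of its hits are not listed in these tables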;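 further: calls also rest on retests at 20 µM and on dose response follow-up; 0% = protein and probe with vehicle and 100% = probe without protein; strong numbers were not always called active; many hits fall short of the cut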
# Rce1 inh = yeast Rce1p protease inhibitors, primary screen, biochemical, fluorescence, cell-free homogeneous; yeast membranes, quenched prenylated peptide cleavage fluorescence; CAAX prenyl protease 2 (Saccharomyces cerevisiae (strain ATCC 204508 / S288c)), Q03530; calls only; 290,000 compounds, 0.27% hits;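 active means fall in fluorescence gain of 50% or more versus controls, with final raw signal at or below 3038400; inconclusive means same 50% fall but final raw signal above 3038400; inactive means fall in fluorescence gain under 50%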;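 further: plate controls were neutral control wells for no effect and wells lacking membranes for full effect; tested at 10 µM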
# Target sequence (Q03530 whole entry, looked up): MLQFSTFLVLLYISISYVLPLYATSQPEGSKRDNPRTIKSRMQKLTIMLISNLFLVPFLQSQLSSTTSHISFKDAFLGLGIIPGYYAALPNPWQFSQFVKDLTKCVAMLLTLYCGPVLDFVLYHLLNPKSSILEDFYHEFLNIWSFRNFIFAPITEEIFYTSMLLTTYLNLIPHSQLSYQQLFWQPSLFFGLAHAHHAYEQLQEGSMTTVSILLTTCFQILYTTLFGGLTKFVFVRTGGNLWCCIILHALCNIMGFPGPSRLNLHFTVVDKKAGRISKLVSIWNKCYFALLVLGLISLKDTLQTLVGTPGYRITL
# PABP polyA inh = PABP poly(A) RNA binding inhibitors, primary screen, biochemical, fluorescence polarization, uHTS | Polyadenylate-binding protein 1 (Homo sapiens), P11940 | inhibition, % at 35 µM | 290,000 compounds, 1% hits;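 active means 50% or more with normal probe brightness, or confirmed in later tests; inconclusive means above 50% with abnormal brightness, or retests that disagree; inactive means below 50% or failed in later tests; about a fifth of its hits are not listed in these tables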;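 further: calls also rest on retests at 20 µM and on dose response follow-up; controls were probe without protein and protein plus probe with vehicle; some compounds called inactive have numbers as strong as hits; many hits fall short of the cut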
# MT1-MMP act inh RFP = second read-out of MT1-MMP act inh, no call of its own (marks repeat the call); RFP signal change, %; measured here: RFP expression control read;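 0 = vehicle wells; hits needed this value within 50% of zero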
# An asterisk follows results filed as active; i = inactive; ? = inconclusive; . = not tested or not shown. An unsorted share of the library; about 2.9% have a hit in one of these screens.
SMILES,UUG fidelity,MT1-MMP act inh,MT1-MMP act inh RFP,HIV Env fusion,CSC inhib,eIF4H FP inh,Rce1 inh,PABP polyA inh
O=C(CCCc1c[nH]c2ccccc12)N1CCN(S(=O)(=O)c2cccs2)CC1,-9,1,-9,3,6,-6,i,-3
O=[N+]([O-])c1cc(/C=N/O)ccc1Oc1ccccc1Cl,.,-1,-1,-14,-4,1,i,-5
Cc1cc([N+](=O)[O-])nn1CC(=O)NCc1ccccc1,-15,-2,2,-2,0,-6,i,-2
CC1=C(C(=O)N(C(C)C)C(C)C)CC(CC(=O)NCCCN(C)C)C(=O)N1Cc1ccccc1 (stereo not given),-9,2,3,-19,.,.,.,.
C[N+]1=C(/C=C/Nc2ccccc2Cl)C(C)(C)c2ccccc21,-5,52*,47*,.,0,?,i,-10
O=C(CCn1c2c(c3ccccc31)CCCC2)NNC(=O)c1cccc([N+](=O)[O-])c1,-15,1,-1,-12,12,-4,i,-25
O=C(CSc1nccn1Cc1ccco1)Nc1ccc(F)cc1,-10,0,-2,-2,10,6,i,2
Cc1ccc(Cl)cc1NC(=O)N(C)CCO,-30,-7,-3,-8,-1,5,i,3
CCc1ccc(N(CC(=O)NC)S(C)(=O)=O)cc1,-5,3,6,-36,-11,-7,i,-2
COc1ccc(-c2cc3nc(C)c(CCC(=O)NC(C)CCc4ccco4)c(C)n3n2)c(OC)c1 (stereo not given),22,1,-9,17,.,-5,i,11
Cc1ccc(S(=O)(=O)N2CCN(C(=O)CN3C(=O)NC4(CCOc5ccccc54)C3=O)CC2)cc1 (stereo not given),-3,1,3,-4,-11,-3,i,-9
CN(C)CCn1c(C(=O)Nc2ccccc2)cc2ccccc21,-17,3,7,.,3,0,i,0
Cc1cc(C)nc(/N=C(/NC(=O)Nc2cccc(Cl)c2)Nc2ccccc2)n1,-4,4,0,.,2,-9,i,-1
CC1CCN(C(=O)CCCOc2ccc(Cl)cc2)CC1,-4,3,4,-26,-4,-2,i,-15
CC(=O)c1cccc(OCc2cc(C(=O)N3CCSCC3)no2)c1,-11,-2,-2,-101,0,-6,i,-10
CCCCC(=O)Nc1cccc(-c2nc3ncccc3o2)c1C,-10,-6,-3,4,-12,2,i,11
Cc1ccc(Cn2c(SCCN3CCOCC3)nc3c2c(=O)n(C)c(=O)n3C)cc1,.,2,3,.,1,-8,i,-4
Cc1c(Br)c([N+](=O)[O-])nn1CC(=O)N1CCc2ccccc2C1,4,3,6,13,-9,4,i,4
CC(NS(=O)(=O)/C=C/c1ccccc1)C(=O)O (stereo not given),.,2,0,14,-8,2,i,-11
Cc1noc(C)c1C(=O)N1CCCC(C(=O)c2cccc(OC(C)C)c2)C1 (stereo not given),7,0,-2,16,-7,-2,i,4
Cc1cccc(C)c1NC(=O)CN(C)CC(=O)Nc1sc2c(c1C(N)=O)CCC2,.,4,-2,-4,.,.,i,.
COc1ccccc1N1CCN(CC(=O)c2c(N)n(C)c(=O)n(C)c2=O)CC1,.,0,-3,-8,-6,-2,i,-11
CCS(=O)(=O)Nc1cccc(-c2cn3c(n2)SCC3)c1,4,1,-1,-2,-5,-2,i,-3
Cc1ccc(S(=O)(=O)N2CCN(C(=O)COC(=O)CNC(=O)c3ccccc3)CC2)c(C)c1,13,2,2,-4,7,.,i,.
O=C(COC(=O)/C=C/c1ccc(F)cc1)Nc1nnc(-c2ccccc2)o1,-22,-1,3,.,11,.,.,.
CCCCN(C(=O)CCCc1nc2ccccc2c(=O)[nH]1)c1c(N)n(CCCC)c(=O)[nH]c1=O,-5,-4,0,15,-4,-18,i,1
CCCCCNC(=O)CSC1=N/C(=C\c2ccc(Cl)c(Cl)c2)C(=O)N1CC,-9,6,2,.,2,-2,i,-5
CSc1ccccc1NC(=O)N1CCC(CO)(CC2CCCCO2)CC1 (stereo not given),.,0,2,0,6,2,i,4
Cc1cccc(NCC(=O)N/N=C/c2cccc(Br)c2)c1,.,0,-1,-1,8,-3,i,6
COc1ccc(N=CC2=C(O)c3ccccc3C2=O)cc1,-32,-1,-15,-192,17,-7,i,3
O=C(NNC(=O)C1CC(c2cccs2)=NO1)Nc1ccc(Cl)cc1 (stereo not given),-11,-2,2,13,-21,5,i,-5
O=C(CN1C(=O)NC2(CCCc3ccccc32)C1=O)N1CCCCC1 (stereo not given),-6,4,1,5,-10,.,i,.
O=C(CCN1C(=O)c2ccc(Br)cc2C1=O)NC1CCCCC1,-2,3,1,-3,-12,-10,i,1
CSc1nc(C)cc(OCNC(=O)c2cccs2)n1,-15,-1,2,-8,-17,7,i,4
Cc1cc(C)c2c(CN3CCN(Cc4ccc5c(c4)OCO5)CC3)cc(=O)oc2c1C,10,4,-6,.,52,7,i,-1
Cc1cccc(NC(=O)C2CC(=O)N(c3ccccc3)C2)c1C (stereo not given),-5,1,-1,.,.,2,i,0
Cn1nc(C(=O)NCc2cccc(Cl)c2)c2c1-c1ccccc1S(=O)(=O)C2,-16,5,0,1,-1,-13,i,-6
CSc1nc(-c2ccc(Cl)cc2)c(C#N)c(=O)[nH]1,.,2,4,59*,2,-1,i,11
COc1ccc(Cn2ccnc2SCC(=O)Nc2ccccc2)cc1,-15,3,-1,-2,33,-18,i,-3
O=C(NC(=S)N1CCCCC1CO)c1cc(Br)ccc1Cl (stereo not given),-3,2,-1,-2,.,.,.,.
CCc1[nH]c(=S)c(C#N)c(-c2ccccc2)c1C(=O)OC,.,4,6,0,2,7,i,10
C=CCN(c1ccc(C(=O)NC(C)C)cc1)S(C)(=O)=O,-13,-2,3,31,.,-4,i,0
COC(=O)c1cccc(NC(=O)c2cnoc2C)c1,-27,5,3,-76,-9,0,i,-3
O=C1CC(N(Cc2ccc3c(c2)OCO3)C(=O)Nc2ccc(F)cc2)C(=O)N1c1ccccc1 (stereo not given),-2,2,3,18,-9,-6,i,-3
O=C(CSc1nnc(-c2cccnc2)n1-c1ccc(F)cc1)NCc1ccc2c(c1)OCO2,-8,1,-1,.,-8,-2,i,-8

# 4 compounds already listed, sorted by formula weight, low to high:
SMILES,UUG fidelity,MT1-MMP act inh,MT1-MMP act inh RFP,HIV Env fusion,CSC inhib,eIF4H FP inh,Rce1 inh,PABP polyA inh
CSc1nc(C)cc(OCNC(=O)c2cccs2)n1,-15,-1,2,-8,-17,7,i,4
CCc1[nH]c(=S)c(C#N)c(-c2ccccc2)c1C(=O)OC,.,4,6,0,2,7,i,10
O=C(CCN1C(=O)c2ccc(Br)cc2C1=O)NC1CCCCC1,-2,3,1,-3,-12,-10,i,1
Cc1cc(C)c2c(CN3CCN(Cc4ccc5c(c4)OCO5)CC3)cc(=O)oc2c1C,10,4,-6,.,52,7,i,-1

# Going on with the list.
SMILES,UUG fidelity,MT1-MMP act inh,MT1-MMP act inh RFP,HIV Env fusion,CSC inhib,eIF4H FP inh,Rce1 inh,PABP polyA inh
Cc1cc(C)nc(SCC(=O)Oc2ccc3oc(=O)cc(C)c3c2)n1,-7,1,2,.,-15,-6,i,-2
O=C(O)c1ccc(CN2CCCCC2)o1,-2,4,-1,.,-9,-2,i,1
Clc1cc(Br)ccc1NCc1cccnc1,-17,-2,-5,7,2,-6,i,6
OC1(c2ccccc2F)CCN(Cc2nnnn2CCc2ccccc2)CC1,4,0,0,.,-10,-7,i,0
Cc1ccc(Cc2c(C3CCCCC3)nc3ccc(C)cn23)cc1,-18,-4,-11,29,.,.,.,.
CCC(C)[C@H](NC(=O)NC1CCCc2ccccc21)C(=O)OC (stereo not given in full),.,3,2,8,-6,3,i,2
C/C(=N\NC(=O)c1cc(C2CC2)nc2ccccc12)c1ccc(O)cc1O,-19,.,.,14,-12,-8,.,10
COc1cc(C(=O)NCC(=O)Nc2ccc(F)c(F)c2)ccc1OCC(=O)N1CCOCC1,-7,-3,1,-3,0,.,i,.
COc1cc(SC)ccc1C(=O)Nc1nc(C)cs1,.,5,-2,?,23,-12,i,2
COC(=O)Nc1ccc(Cc2ccncc2)cc1,.,-1,0,4,-5,-1,i,-7
O=C(O)c1ccc(OCC2CCCO2)cc1 (stereo not given),-20,3,2,-6,-17,1,i,6
Cc1cc(C)n(-c2nc(Nc3ccccc3C)nc(-n3nc(C)cc3C)n2)n1,.,.,.,-2,10,-2,i,-19
O=C(NC1CCN(Cc2ccccc2)CC1)c1cccc(S(=O)(=O)Nc2ccc(SC(F)F)cc2)c1,-11,.,.,9,20,.,.,.
c1ccc2c(c1)nc(NCc1ccc3c(c1)OCO3)n2CCN1CCOCC1,.,-1,3,-3,-8,-1,i,-3
CC1CCCC(NC(=O)COC(=O)CCc2ccccc2)C1C (stereo not given),.,3,3,-4,-9,5,i,-4
Cc1ccc(-c2cc(C(=O)N/N=C/c3c(C)nn(C)c3C)c3ccccc3n2)c(C)c1,-5,-12,-3,-11,-9,0,i,-1
CCc1cc(C(=O)NNC(=S)Nc2ccccc2C)cs1,-38,10,-3,-223,-9,2,i,4
CSCC[C@H](NC(=O)Cc1c(C)c2c(cc(C)c3c(C)coc32)oc1=O)C(=O)O,0,-1,0,-26,-3,2,i,-3
Cc1ccc(S(=O)(=O)N2CCN(c3nn(C)c(=O)n(C)c3=O)CC2)cc1C,-19,-12,-3,3,10,.,.,.
COc1cccc(OC)c1C(=O)N1CCN(c2c(Cc3ccccc3)c(C)nc3ncnn23)CC1,-2,6,0,.,-14,-17,i,7
CS(=O)(=O)N(CC(=O)NCc1ccccc1Cl)c1cccc([N+](=O)[O-])c1,-19,4,5,2,-1,-2,i,-1
CC(=NCCc1ccccc1)C1=C(O)CSC1=O,.,0,1,.,2,5,i,0
Cc1cnc(C(=O)OCC(=O)N2c3ccccc3NC(=O)C2(C)C)cn1,-7,0,2,-75,-10,2,i,-5
COc1ccc(CC(=O)N2CCCC2)c(OC)c1,-16,-2,2,5,-18,6,i,9
CCC(C(=O)Nc1cccnc1Cl)c1ccccc1 (stereo not given),-6,1,5,-44,-19,-5,i,7
CCN(CC)c1ccc(NC(=O)CCNC(=O)c2ccco2)cc1,-18,2,1,8,-7,0,i,7
Cc1ccc(S(=O)(=O)N2C[C@H]3C(=O)C[C@@H](c4ccc(Cl)cc4)N(S(=O)(=O)c4ccc(C)cc4)[C@H]3C[C@H]2c2ccccc2)cc1,-12,-3,-2,-5,.,.,.,.
C=CCN1C(=O)CSc2ccc(C(=O)NC3CCCCC3)cc21,-2,3,0,-5,-6,.,i,.
COc1cccc(CNc2nc3cc(C(C)=C(C)C)sc3c(=O)n2C)c1,-8,0,-4,5,.,.,.,.
O=[N+]([O-])c1ccc2c(c1)ncn2-c1ccccc1,.,1,-2,-23,-10,-4,i,-2
Nc1nnc(CCc2ccccc2)s1,-11,1,1,-124,-11,-3,i,-2
O=C(NC1CC1)C1CCN(C(=O)c2ccccc2Cl)CC1,-14,-1,3,0,6,-4,i,8
Cc1ccccc1OCCC(=O)OCC(=O)Nc1ccc2[nH]c(=O)[nH]c2c1,-10,1,4,.,2,.,i,.
Cc1nc(-c2ccc(S(=O)(=O)Nc3cccc(S(N)(=O)=O)c3)s2)cs1,-4,3,-1,-2,-7,-1,i,1
